Screening results (PubChem)
Rce1 inhib – blocks yeast Ras-converting enzyme. calls only. AID 2563. 0.27% of 290,000 active. yeast membranes, quenched prenylated peptide cleavage fluorescence;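 active = fall in fluorescence gain of 50% or more versus controls, with final raw signal at or below 3038400; inconclusive = same 50% fall but final raw signal above 3038400; inactive = fall in fluorescence gain under 50%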;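 note: plate controls were neutral control wells for no effect and wells lacking membranes for full effect; tested at 10 µM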
Target sequence (Q03530 whole entry, looked up): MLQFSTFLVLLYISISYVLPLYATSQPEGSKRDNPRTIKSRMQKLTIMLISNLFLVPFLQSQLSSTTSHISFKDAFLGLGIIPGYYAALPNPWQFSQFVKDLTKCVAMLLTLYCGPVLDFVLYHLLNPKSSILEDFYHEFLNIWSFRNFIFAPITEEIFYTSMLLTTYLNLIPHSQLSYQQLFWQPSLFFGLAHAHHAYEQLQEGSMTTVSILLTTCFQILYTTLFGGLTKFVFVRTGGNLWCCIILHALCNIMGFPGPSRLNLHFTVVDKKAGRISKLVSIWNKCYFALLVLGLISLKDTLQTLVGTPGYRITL
eIF4H inh – inhibitors of RNA binding by human eIF4H. Q15056. inhibition, % at 35 µM. eIF4H fluorescence polarization binding assay. 0.94% of 290,000 active. AID 2012;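 active = 50% or more with normal probe brightness, or confirmed in later tests; inconclusive = above 50% with abnormal brightness, or retests that disagree; inactive = below 50% or failed in later tests; about a fifth of its hits are not listed in these tables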;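 note: calls also rest on retests at 20 µM and on dose response follow-up; 0% = protein and probe with vehicle and 100% = probe without protein; strong numbers were not always called active; many hits fall short of the cut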
CSC inhib – blocks cancer stem cells; AID 2717; 1.1% of 300,000 active; cancer stem cell-like cells viability, luminescence; inhibition, % at 7.5 µM;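 active = mean at 75% or more and at least half the replicates too; inconclusive = mean and replicates disagree; tested in HMLE shEcad cells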;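 note: 0% = median of negative and 100% = median of positive control wells; the first replicate is given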
PABP polyA inh – blocks human PABP binding to poly(A) RNA; P11940; fluorescence polarization; inhibition, % at 35 µM; 1% of 290,000 active; AID 2014;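 active = 50% or more with normal probe brightness, or confirmed in later tests; inconclusive = above 50% with abnormal brightness, or retests that disagree; inactive = below 50% or failed in later tests; about a fifth of its hits are not listed in these tables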;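 note: calls also rest on retests at 20 µM and on dose response follow-up; controls were probe without protein and protein plus probe with vehicle; some compounds called inactive have numbers as strong as hits; many hits fall short of the cut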
Target sequence (P11940 whole entry, looked up): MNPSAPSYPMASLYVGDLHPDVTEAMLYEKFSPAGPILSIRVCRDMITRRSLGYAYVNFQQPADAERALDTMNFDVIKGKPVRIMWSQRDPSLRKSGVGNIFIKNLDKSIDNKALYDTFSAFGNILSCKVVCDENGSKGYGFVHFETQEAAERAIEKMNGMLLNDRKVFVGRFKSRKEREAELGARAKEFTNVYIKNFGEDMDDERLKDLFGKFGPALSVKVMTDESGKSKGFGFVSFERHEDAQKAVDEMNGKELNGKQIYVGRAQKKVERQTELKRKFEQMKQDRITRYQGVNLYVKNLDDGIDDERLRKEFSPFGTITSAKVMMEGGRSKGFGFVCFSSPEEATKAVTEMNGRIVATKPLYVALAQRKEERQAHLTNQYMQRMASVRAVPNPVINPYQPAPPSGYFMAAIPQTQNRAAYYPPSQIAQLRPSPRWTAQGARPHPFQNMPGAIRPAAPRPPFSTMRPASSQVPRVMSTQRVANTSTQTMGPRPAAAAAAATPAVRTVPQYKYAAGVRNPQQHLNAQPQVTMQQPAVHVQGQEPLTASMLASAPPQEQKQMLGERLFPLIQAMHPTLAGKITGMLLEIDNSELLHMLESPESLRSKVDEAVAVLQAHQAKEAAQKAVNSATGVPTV
MT1-MMP act inh – inhibitors of human MT1-MMP activation. 0.061% of 360,000 active. GFP/RFP ratio change, % at 20 µM. HT1080 RFP-PRO-GFP cells, GFP/RFP ratio fluorescence, overnight; percent of plate control window, DMSO zero;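 active = GFP/RFP ratio change of at least 30% with cell ATP level not reduced by more than half and red fluorescence within 50% of control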; note: strong numbers were not always called active
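Material – HT1080 RFP-PRO-GFP cells · Control set – DMSO wells and RFP-L50D-GFP cells · Incubation – overnight cell settling, then overnight compound exposure, 37 °C, 5% CO2 · Compound dosing – single-point 20 µM compound, 1% DMSO · Read-out – GFP/RFP fluorescence ratio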
HIV Env fusion – HIV envelope-mediated fusion inhibition; HeLa-JRFL Env/CEM21 cell fusion, luciferase; inhibition, % at 12.3 µM; 1.1% of 360,000 active;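 active = mean replicate inhibition score of at least 50 and every replicate individually at or above 50; inconclusive = only one of the two criteria met; inactive = mean below 50 and not all replicates reaching 50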;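 note: 0% = plate neutral controls and 100% = maraviroc near 300 nM; one replicate is shown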
Yeast UUG start – alters start codon recognition fidelity in yeast | S. cerevisiae UUG-firefly luciferase reporter, luminescence/redox ratio | activity score, % at 18.7 µM | 0.13% of 350,000 active;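 active = replicate mean at a twofold rise or more, about +100% in these data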;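 note: firefly luciferase made from a UUG start codon reports start codon fidelity; reporter light over untreated wells divided by growth signal over untreated wells; some hits fall short of that in this replicate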
MT1-MMP act inh RFP – recorded beside MT1-MMP act inh, whose call it bears; RFP signal change, %; measured here: RFP expression control read;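 0 = vehicle wells; hits needed this value within 50% of zero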
The depositor's hits bear a star; i = inactive; ? = inconclusive; · = no result given.

Values in the order – MT1-MMP act inh RFP	Yeast UUG start	eIF4H inh	HIV Env fusion	PABP polyA inh	MT1-MMP act inh	Rce1 inhib	CSC inhib
> CC1(C(=O)Nc2ccc3[nH]ncc3c2)CCN1C(=O)C1(c2ccccc2)CC1 (stereo not given)
 : 1	0	·	-8	·	-6	·	·
> Cc1cc(C)cc(-n2nnc(C(=O)NCc3ccc(Cl)cc3)c2N)c1
 : 2	-11	-6	-10	10	1	i	-2
> COC(=O)C1=C(C(=O)OC)[C@@H]2N(C)c3ccc(OC)cc3[C@@]23C[C@@H](C(=O)OC)N(C(=O)CC(C)C)C3=N1
 : -3	-9	·	-5	·	-2	i	4
> O=C(c1ccco1)N1CCN(c2ncnc3scc(-c4ccc(Cl)cc4)c23)CC1
 : -1	-11	·	-6	·	-4	·	·
> CCN(CC)C(=O)c1cccc(-c2csc(C(NC(C)=O)c3cccc(OC)c3)n2)c1 (stereo not given)
 : -1	-13	·	13	·	3	·	·
> Clc1ccccc1Cn1nnc2c(Nc3ccccc3)ncnc21
 : 0	·	2	·	-9	7	i	14
> Cc1nnc(SCCn2c(N3CC(C)CC(C)C3)nc3c2c(=O)n(C)c(=O)n3C)s1 (stereo not given)
 : 4	-8	-1	-18	-8	-2	i	·
> COc1cc(NC(=O)c2ncn[nH]2)cc(OC)c1OC
 : 6	-12	4	-35	18	0	i	·
> Cc1c(Cl)cccc1NC(=S)NC1CCN(Cc2ccccc2)CC1
 : 2	·	-7	29	6	3	i	-16
> COc1cc(NS(=O)(=O)c2ccc(NS(=O)(=O)c3ccccc3)cc2)nc(OC)n1
 : 0	-7	5	·	-8	1	i	·
> Cc1nc(N2CCOCC2)nc(OC(C)C)c1[N+](=O)[O-]
 : -2	·	-10	1	-8	-5	i	2
> Cc1ccc(NC(CC(=O)c2ccccc2)C(=O)O)cc1Cl (stereo not given)
 : 1	-32	-1	-155	5	-6	i	5
> COc1ccccc1-n1c(SCC(=O)O)nnc1-c1ccc(S(=O)(=O)N2CCCCC2)cc1
 : -2	-6	-6	0	12	0	i	·
> COc1ccc2[nH]c3c(c2c1)CCN1C(=O)C(CC(=O)NC(C)(C)C)C[C@H](C(=O)N2CCCCC2)[C@@]31C (stereo not given in full)
 : -1	1	·	20	·	-4	·	·
> CC1CCN(C(=O)CN(C)S(=O)(=O)c2cccc3nsnc23)CC1
 : -1	-3	-2	-88	-2	-5	i	0
> O=C(NC1=NCCS1)c1cc(Cl)ccc1Cl
 : 2	10	8	1	-5	-3	i	-8
> COC(=O)c1nn(-c2nc(-c3cccc(OC)c3)cc(C(F)(F)F)n2)cc1[N+](=O)[O-]
 : -6	·	8	7	8	-6	i	-1
> Cc1ccc(S(=O)(=O)NC(=O)Nc2nnc(C3CC3)s2)cc1
 : 7	-8	-11	-12	-2	2	i	2
> Cc1ccc(S(=O)(=O)NNC(=O)Nc2cccc(C)c2C)c(C)c1
 : 3	-7	-10	-422	-7	0	i	-1
> Cc1ccccc1C(=O)OCc1nnc(-c2ccc(Cl)cc2)o1
 : 3	·	-3	-25	8	3	i	7
> CC1(C)Cc2ccccc2C(/C(=N/O)C(N)=O)=N1
 : 5	-10	-16	-14	3	1	i	-8
> CCc1ccc2[nH]c(=O)c(C(c3nnnn3CCOC)N3CCN(c4ccc(F)cc4)CC3)cc2c1 (stereo not given)
 : 0	20	-3	·	21	-2	i	-1
> O=C(Nc1ccc(Br)cc1)/C(=C/c1cccc([N+](=O)[O-])c1)NC(=O)C1CCCCC1
 : -4	-20	5	-25	-6	5	i	-6
> Cc1ccc(NC(=O)CSCC(=O)NNC(=O)c2nn(C)c(=O)c3ccccc23)cc1
 : 1	10	·	-32	·	1	·	-7
> Cc1ccccc1-n1nnnc1SCC(=O)Nc1ccc(S(=O)(=O)N2CCCC2)cc1
 : -1	-13	-4	-4	3	-5	i	31
> O=C(COc1ccccc1)Nc1ccc2c(c1)nc1n2CCSC1
 : 8	-20	-3	-191	-6	3	i	10
> Cn1cccc1C(=O)NC(=O)COC(=O)c1ccccc1Sc1ccccc1C#N
 : 3	-9	-4	·	-9	-2	i	14
> Cc1ccc(NC(=O)c2ccccc2NS(=O)(=O)c2ccc(F)cc2)cc1S(=O)(=O)N1CCCCC1
 : -40	·	3	?	4	-42	i	51
> Cc1ccccc1C(=O)Nc1cccc(NC(=O)c2cccnc2)c1
 : -1	-1	-13	-35	-6	-3	i	1
> O=C1C(SC(F)(F)C(F)F)=C(C(F)(F)F)OC2C3C=CC(C3)C12 (stereo not given)
 : -4	-13	-4	·	-2	-4	i	1
> O=C(O)CSC1CC(=O)N(c2ccc(Br)cc2)C1=O (stereo not given)
 : 5	-19	13	14	5	1	i	-12
> CCCn1nc2cc(C(=O)NCc3ccc4c(c3)OCO4)ccc2c1OCC
 : 6	-18	-6	-36	-1	1	i	-18
> COc1cc(C(=O)NNC(=S)NCc2ccco2)cc(OC)c1OC
 : 3	6	1	21	0	2	i	-11
> COCCCn1c(=O)c2ccccc2n(CC(=O)Nc2ccc3c(c2)OCCO3)c1=O
 : 3	0	-7	2	3	3	i	-11
> CCCCOC(=O)c1ccc(NC(=O)c2c(Cl)ccc(Cl)c2OC)cc1
 : -8	·	7	-5	-11	-4	i	-3
> COCCn1c(C)cc(C(=O)COC(=O)c2ccc(-n3nc(C)cc3C)cc2)c1C
 : 8	-23	9	-6	12	3	i	-7
> O=C1C2CC=C(Cl)CC2C(=O)N1CCCCCCN1C(=O)C2CC=C(Cl)CC2C1=O (stereo not given)
 : 1	-2	99*	·	100*	-16	i	4
> CCC1CCCCN1CCNS(=O)(=O)c1ccc2c(c1)CCN2C(C)=O (stereo not given)
 : -1	-8	1	-30	14	-3	i	5
> O=C(NCCN1CCOCC1)c1ccc(Cl)cc1[N+](=O)[O-]
 : -4	1	-2	·	3	-4	i	-18
> O=C(c1ccccc1)c1coc2c1C(=O)c1ccccc1C2=O
 : 1	·	-11	-4	-7	1	i	36
> Cc1ccc(C2c3c(oc4ccc(Cl)cc4c3=O)C(=O)N2CCCN2CCOCC2)o1 (stereo not given)
 : ·	·	-1	·	4	·	i	-7
> NS(=O)(=O)c1cnccc1Oc1cccc(Cl)c1
 : 3	·	·	-4	·	0	i	-1
> COc1ccc(S(N)(=O)=O)cc1C(=O)NCC(C)(C)N1CCOCC1
 : 0	-9	-14	-6	1	0	i	6
> O=C(O)c1ccc(S(=O)(=O)N2CCOCC2)o1
 : 1	-5	-4	1	10	4	·	1
> O=C(COC(=O)c1cccnc1Cl)Nc1ccc(S(=O)(=O)N2CCOCC2)cc1
 : -2	-13	·	-17	·	5	·	2
> CCc1ccccc1NC(=O)CN(C)C(=O)CSc1nnc(Nc2ccc(C)cc2)s1
 : -5	·	-2	-24	7	5	i	-10
> COC(=O)c1ccccc1OCCOCCOc1cccc2ccc(C)nc12
 : 4	1	-2	16	13	-3	i	-10
> Cc1nnc(N2C(=O)c3ccc(Br)cc3C2=O)s1
 : ·	-4	-6	-9	9	·	i	-16
> CN(CC(=O)Nc1ccccc1Br)C(=O)CCSc1ccc(F)cc1
 : -9	0	·	18	·	-2	i	-18
> Cc1ccc(SCc2cc(=O)n(C)[nH]2)cc1
 : 6	·	-13	4	5	8	i	14

Following part.
Values in the order – MT1-MMP act inh RFP	Yeast UUG start	eIF4H inh	HIV Env fusion	PABP polyA inh	MT1-MMP act inh	Rce1 inhib	CSC inhib
> CCN(CC)CCCN1C(=O)C(O)=C(C(=O)c2ccco2)C1c1ccc(C)o1 (stereo not given)
 : 6	-11	·	4	·	2	i	-12
> O=c1oc2ccccc2n1CCCOc1ccccc1
 : 1	7	2	·	-1	3	i	-6
> O=C1CCCC(O)=C1C=NCc1ccccc1
 : -3	·	1	-1	-9	-5	i	6
> CCCCSc1ccc2nc(-c3ccc(C#N)cc3)cn2c1
 : -21	-8	-10	·	5	-2	i	23
> O=C(NNc1ccc([N+](=O)[O-])cc1)C12CC3CC(CC(C3)C1)C2
 : 3	-16	-5	69*	-8	2	i	1
> CNC(=O)C1=C(C)Nc2nc3ccccc3n2C1c1cccc(OC)c1 (stereo not given)
 : 1	-6	0	-7	-4	2	i	-14
> CC(C)Oc1ccc(F)cc1-c1cc(C(=O)NCc2ccc(C(F)(F)F)cc2)[nH]n1
 : -5	-35	·	-71	·	-2	·	·
> Cc1c(C(=O)N2CCOCC2)oc2ccc(S(=O)(=O)N3CCCC3)cc12
 : 6	-15	14	-97	26	5	i	-19
> Nc1c(N(Cc2ccco2)C(=O)COc2ccc(Cl)cc2)c(=O)[nH]c(=O)n1Cc1ccccc1
 : 0	-9	·	54	·	-2	·	·
> CC1(C)CC(=O)C=C(c2ccc(-c3ccc(S(C)(=O)=O)cc3)cc2)C1=O
 : -3	11	·	-16	·	-2	·	·
> CCOc1ccc(NS(=O)(=O)c2ccc(OCC)c3ncccc23)cc1
 : -5	-4	-13	30	15	4	i	·
> Cc1ccc(OCCn2cnc3sc(C(N)=O)c(C)c3c2=O)cc1
 : ·	·	-2	-2	-2	·	i	7
> CCN1CCc2c(C#N)c(N3CCCCC3)nc(NCc3ccccc3)c2C1
 : -8	-19	32	-111	12	-11	i	2
> Cc1cc(C)nc(SCC(=O)NC(=O)c2ccccc2O)n1
 : 7	-10	·	3	·	1	·	5
> O=C1CSC(c2cccc(F)c2)N1c1ccc(O)cc1 (stereo not given)
 : 1	-6	-2	·	-3	5	i	-14
> O=C1c2ccsc2SCCN1Cc1c(F)cccc1Cl
 : 3	5	-4	31	3	6	i	-10
> CCCCn1nc(C(=O)Nc2cc(S(=O)(=O)N(C)C)ccc2C)c2ccccc2c1=O
 : 1	-10	-8	-20	-6	-9	i	10
> CCCC(NS(=O)(=O)c1ccc(OC)cc1)C(=O)O (stereo not given)
 : 7	-8	-3	-37	4	2	i	·
> O=C(COC(=O)c1cc(Br)ccc1O)Nc1ccc2c(c1)OCO2
 : 0	5	·	·	·	-3	·	-15
> c1ccc2oc(-c3nn4c(Cn5cnc6ccccc65)nnc4s3)cc2c1
 : -3	·	·	15	·	1	·	23
> CC(=O)Nc1ccc(NC(=O)CCc2nc3ccccc3c(=O)[nH]2)cc1
 : 1	-11	2	-15	0	2	i	-3
> S=C(c1ccc(-c2cccc(Cl)c2)o1)N1CCOCC1
 : -2	-28	6	·	-2	-4	i	2
> CCCCn1c(SCC(=O)c2ccc(O)cc2O)nc2cc(S(N)(=O)=O)ccc21
 : 0	8	3	-19	0	0	i	-3
> O=C(CN(C(=O)CNC(=O)c1ccco1)c1ccc(F)cc1)NC1CCCC1
 : 3	-5	1	-4	-8	-2	i	·
> COc1cc(CNC(=O)c2ccc(Cn3nc(C)c(Cl)c3C)o2)cc(OC)c1
 : -5	-15	-3	·	0	-6	i	7
> COc1cc(C)c(S(=O)(=O)NCc2cccs2)cc1C
 : 1	·	1	·	13	0	i	-22
> CC(=O)Cn1cnc2c(cnn2-c2ccccc2)c1=O
 : 6	-2	-4	-8	-5	0	i	2
> COc1ccccc1N1CCN(S(=O)(=O)Cc2ccccc2Cl)CC1
 : -1	3	-2	·	-17	-4	i	-11
> O=C(c1ccc([N+](=O)[O-])cc1)c1cc2ccc(O)cc2oc1=O
 : -3	-16	6	-4	-1	-2	i	1
> CN(CCOc1ccccc1)C(=O)C1CCN(C(=O)c2ccc(Cl)cc2)CC1
 : -1	5	-10	1	6	-2	i	5
> O=C(Nc1ccc(N=Nc2ccccc2)cc1)c1cccc(Cl)c1
 : 3	-11	-7	-103	-6	4	i	13
> CCOc1ccc(C(=O)c2ccc(OCC)c(N)c2)cc1N
 : -4	-4	-9	-64	-5	3	i	53
> Cc1cc2nccc(-c3ccccn3)n2n1
 : 3	-8	-1	18	0	8	i	5
> Cc1cc(C)n(-c2ccc(C(=O)Nc3ccc(N4CCOCC4)cc3)cc2)n1
 : -2	-7	-15	·	7	0	i	-20

Compounds were not picked by outcome; about 2.9% have a hit in one of these screens.
